Bioassay records: PubChem, Center for Chemical Genomics, University of Michigan
TAR Tat displ: HIV-1 TAR-Tat binding disruption. HIV-1 TAR RNA, Tat peptide displacement FRET; active compounds read high. z-score (no concentration beside the values). 100,000 tested, 0.6% active;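 also: score is relative to mean and SD of negative controls; some compounds called inactive have numbers as strong as hits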
CDC25B-CDK2 inh: human CDC25B-CDK2/CyclinA binding inhibition; HTRF CDC25B-CDK2/CyclinA binding, anti-His/anti-Flag; active compounds read high; z-score (concentration not given with the values); 94,000 tested, 0.72% active; AID 1259370;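 also: score is relative to mean and SD of negative controls; strong numbers were not always called active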
Starred values were filed as active, the others as inactive; nt = no result given; & = joins results of further samples.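 The calls were made as follows: active = z-score from 3 up in half or more of its runs; inactive = the rest.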

SMILES | TAR Tat displ | CDC25B-CDK2 inh
Cc1nnc2c3ccccc3nc(N3CCN(c4ccccn4)CC3)n12 | 1.8 | -0.34
COc1cc(NC(=O)CSc2ccc(S(=O)(=O)C3CCCCC3)nn2)cc(OC)c1 | 0.92 | -0.12
COC(=O)c1ccc(CN2CC(=O)N3CCCC3C2=O)cc1 (configuration not stated) | 0.99 | -0.03
Cc1ccc(NC(=O)CSc2nc(-c3ccccc3C)nc3cc(=O)[nH]n23)c(C)c1 | 0.4 | nt
O=C1CC(c2ccccc2)Cc2[nH]c(=O)c(-c3nc(-c4ccc5c(c4)OCO5)cs3)cc21 (configuration not stated) | -3.5 | -2.8
CC1CCCCC1NC(=O)Cn1ncn2nc(-c3cccs3)cc2c1=O (configuration not stated) | 0.11 | -3.2
CCc1cc(C)cc(OCC(O)C[n+]2cn(CC)c3ccccc32)c1 (configuration not stated) | 0.83 | -2
O=C(NCCn1cnc2cc(C(=O)N3CCCC3)ccc21)Nc1ccc(Br)cc1 | 1.2 | nt
CC1(CC(=O)N/N=C/c2ccc(-c3cccc(C(F)(F)F)c3)o2)OCCO1 | nt | -0.87
CN(Cc1ccco1)C1CCCCC1NS(=O)(=O)c1ccc(Cl)cc1 (configuration not stated) | -0.07 | -0.13
CC1CC(C)CN(C(=O)C2CCN(S(=O)(=O)c3ccc4[nH]c(=O)ccc4c3)CC2)C1 (configuration not stated) | -1.9 | nt
Cc1cc(C)c(S(=O)(=O)NCCc2cn3ccsc3n2)c(C)c1 | -0.84 | nt
Cc1nn(-c2ccc(N3CCCC3)nn2)c(C)c1CCC(=O)N1CCN(C)CC1 | 1.1 | nt
CC(C)(C)c1ccc(-c2nnc3sc(-c4ccco4)nn23)cc1 | 2.9 | 0.94
CCc1cc2c(s1)SCC(=O)N2CC(=O)NC1CCCCC1 | -0.73 | nt
CC(=O)Nc1nc2c(ncn2COCCOC(C)=O)c(=O)[nH]1 | -0.12 | 0.56
N#Cc1c2c(c(NCCCN3CCOCC3)n3c1nc1ccccc13)CCC2 | -1.3 | -1.2
COc1cc(C=N/C(C#N)=C(/C#N)NCC(C)(C)C)cc(Br)c1O | nt | -0.38
CCCN(CCC)CCCn1cnc2c([nH]c3ccc(OC)cc32)c1=O | 3.1 | -1.9
O=S(=O)(Nc1ccc2c(c1)OCCO2)c1ccc2c(c1)CCN2 | 0.74 | nt
O=C(NCC(c1cccnc1)N1CCc2ccccc21)c1cccc(Br)c1 (configuration not stated) | -0.07 | 1.3
O=C1COc2ccccc2N1Cc1noc(-c2cc3ccccc3[nH]2)n1 | 0.58 | nt
CCc1c(C)nc2nc(NCc3cccs3)[nH]n2c1=O | 1.9 | -2.5
CC(C)OC(=O)Cn1cnc([N+](=O)[O-])n1 | 0.24 | -0.84
c1ccc2c(c1)nc1n2CN(CC2CCCO2)CN1 (configuration not stated) | nt | -1
CCCC(=O)Nc1ccc2oc(-c3c(F)c(F)c(F)c(F)c3F)nc2c1 | nt | -3.5
NC(=O)C1CCCN(C(=O)Nc2ccc(F)cc2F)C1 (configuration not stated) | 3.4 | -2.9
CCCS(=O)(=O)c1c(S(=O)(=O)CCC)c2ccc(C(N)=O)cn2c1C(=O)c1ccc(C)cc1 | 0.27 | -1
Cc1cc(C)c2c(n1)nn1c(C)c(CCC(=O)NCC3CCCO3)c(C)nc21 (configuration not stated) | 0.64 | -0.6
O=C(CSc1n[nH]c(=O)n1-c1ccccc1)N1CCC(C(F)(F)F)CC1 | nt | -0.74
Cc1cc(C)n(C(=O)CCCCC(=O)n2nc(C)cc2C)n1 | 0.3 | -0.38
CCN(CC)CCCNC(=O)Cn1c2ccccc2c2nc(=O)cc(C)n21 | 2.6 | -1.6
CCc1ccccc1-n1nnc(-c2nc(-c3ccc(F)cc3)no2)c1N | 2.1 | nt
Cc1ccc(C2/C(=C(\O)c3ccc(Cl)cc3)C(=O)C(=O)N2CCN2CCOCC2)o1 (configuration not stated) | -0.59 | -1.6
Cc1ccc(S(=O)(=O)NCc2nc3nc(C)cc(C)n3n2)cc1 | -0.05 | -0.93
Cn1c(=O)c2c(nc(Cl)n2Cc2ccccc2F)n(C)c1=O | 2.3 | -1.1
O=C(Nc1c(C(c2cccc(Br)c2)N2CCOCC2)oc2ccccc12)c1ccco1 (configuration not stated) | -0.65 | -0.15
O=C(Cn1cc(C(=O)c2ccc(F)cc2)c(=O)c2cc3c(cc21)OCCO3)Nc1ccc(F)c(F)c1 | -0.83 | -1.6
Cc1nc(N=Nc2ccc(S(=O)(=O)O)cc2S(=O)(=O)O)c(COP(=O)(O)O)c(C=O)c1O | nt | -1.8
Cc1nc2ccccc2c2c1C(=O)N(c1cccc(Cl)c1)C2=O | -1 | 2.5
CCCc1[nH]nc2c1C(c1ccc(-c3ccccc3)cc1)C(C#N)=C(N)O2 (configuration not stated) | 0.44 | -0.56
Cn1cnnc1SCC#CCO | -1.4 | -1.7
CSc1cccc(NC(=O)C2CCN(S(=O)(=O)c3cccc4nonc34)CC2)c1 | -0.9 | -1.6
NC(=O)C1CCN(C(=O)CN2c3ccccc3NC3=C(C(=O)CCC3)C2c2cccs2)CC1 (configuration not stated) | 1.2 | nt
O=C(Nc1ccccc1)Nn1cnnc1 | nt | -0.44
O=C1c2ccccc2-c2nc3ncnn3c(-c3ccccc3)c21 | 2.2 | -0.88
CCC(C)NC(=O)CCc1nnc2ccc(NCc3ccc4c(c3)OCO4)nn12 (configuration not stated) | 2.2 | nt
Cc1cccc(C(=O)Nc2cc(C#N)c3[nH]c4ccccc4n3c2=O)c1 | -4.5 | -0.44
CCN1CCN(c2nc3c(c(=O)[nH]c(=O)n3C)n2CC(O)c2ccccc2)CC1 (configuration not stated) | -0.52 | -2.2
Cc1ccc(-n2nc(C)c3c(-c4ccccc4)ccnc32)cc1 | 1.8 | -1.4
O=C(CCCCCN1C(=O)c2cccc3cccc(c23)C1=O)NCCCO | nt | -1.2
O=C1c2cccnc2C(=O)N1c1ccc(Cl)cc1 | 0.45 | 0.26
CC1CCN(c2c(S(=O)(=O)c3ccccc3)cnc3cc4c(cc23)OCCO4)CC1 | -0.18 | 0.68
COCCCNC(=O)c1oc2ccc3c(c2c1C)C(=O)CC(C)(C)O3 | nt | -1.1
COc1cccc(N2CC(C(=O)Nc3nnc4n3CCS4)CC2=O)c1 (configuration not stated) | 0.72 | nt
CN1N=C2c3ccccc3CCCC2C1c1cccs1 (configuration not stated) | nt | -0.05

The listing continues.
SMILES | TAR Tat displ | CDC25B-CDK2 inh
Cc1c(C)c(C)c(CSCC(=O)NNS(=O)(=O)c2ccc(F)cc2)c(C)c1C | nt | -1.7
CC1=C(c2ccc(Cl)cc2)S(=O)(=O)NC1=NCc1ccccc1Cl | 0.72 | -16
Cc1cc(C)c2c(n1)sc1c(=O)n(Cc3ccccc3)nnc12 | 0.14 | -2.3
CC(CCc1ccccc1)NC(=O)Nc1cccs1 (configuration not stated) | 0.25 | 0.41
NC(=O)CSc1nnc(-c2cccnc2)n1-c1ccc(Cl)cc1 | 3 | -1.6
O=C(NC1CCCCC1)c1ccc(NC(=O)c2nc(-n3cnnc3)ccc2Br)cc1 | 1.7 | nt
Cc1cc(S(=O)(=O)N(Cc2ccccc2)Cc2ccccc2Cl)ccc1-n1cnnn1 | -0.79 | -2.1
CCOC(=O)C12C(=O)OC(C)(C)C1C2(CC)C(=O)c1ccccc1 (configuration not stated) | nt | 0.9
CCn1nc(C)c(CNC(=O)Nc2cc(C)ccc2C)c1C | 1.4 | nt
O=C1Nc2cc(C(=O)N3CCC(N4CCCCC4)CC3)ccc2Sc2ccccc21 | 0.75 | -5.4
Cn1nc(-c2ccc(Br)s2)c(Br)c1C(F)(F)F | nt | -1.4
CCCCn1c(=O)[nH]c2c(c1=O)C(C)(CC)Cc1ccccc1-2 (configuration not stated) | 1.8 | -2.8
COC(=O)Cc1c(C)nc2nc(-c3ccc(C)cc3)[nH]n2c1=O | 2.6 | -1.7
CCOc1ccc(-c2cn3nc(COC)sc3n2)cc1 | -0.45 | -0.25
CCCCCCCc1nc2c(=O)[nH]c3ccccc3c2o1 | nt | -1.9
COc1ccc(-c2csc(NC3=NS(=O)(=O)c4ccccc43)n2)cc1 | -0.24 | -1.1

For reference, part of the list above:
SMILES | TAR Tat displ | CDC25B-CDK2 inh
CCOc1ccc(-c2cn3nc(COC)sc3n2)cc1 | -0.45 | -0.25
CCCCCCCc1nc2c(=O)[nH]c3ccccc3c2o1 | nt | -1.9

(list continues)
SMILES | TAR Tat displ | CDC25B-CDK2 inh
Cc1cccc(NC(c2ccc(F)cc2)c2ccc3ccc(C)nc3c2O)n1 (configuration not stated) | -0.16 | 1.1
COC(=O)c1ccc2nc(Nc3nc4cc5c(cc4s3)OCO5)sc2c1 | 0.28 | -1.6
CCOc1ccc(Nc2cc(-n3nc(C)cc3C)ncn2)cc1 | -0.18 | nt
CCCCc1nn2c(=O)cc(CSc3n[nH]c(-c4ccc(Cl)cc4)n3)nc2s1 | -1.7 | nt
O=C(c1ccno1)n1nccc1-c1cc(-c2ccccc2)no1 | nt | -0.45
Cc1ccc(S(=O)(=O)Nc2ccc3c(c2)N(S(=O)(=O)c2ccc(F)cc2)CCC3)cc1C | 1.9 | nt
O=c1nc2c(-c3cccc(Cl)c3)n[nH]n2c2cc(Cl)ccc12 | -0.14 | -2.3
COc1ccc(-c2noc(CN(C)S(=O)(=O)c3ccc(F)cc3)n2)cc1OC | 1.6 | -1.9
O=C(SC1=NCCc2ccccc21)c1ccc(Cl)cc1 | nt | -1.6
Cc1cc(N(C)C)nc(N2CCN(C(=O)Nc3cccc(Cl)c3)CC2)n1 | -0.1 | nt
CC(C)CNC(=O)CN1c2ccc(Br)cc2-c2ccccc2S1(=O)=O | 0.58 | 0.79
CCOC(=O)Cc1csc(NC(=O)CSc2nnc(C)s2)n1 | nt | -2.4
O=C(COc1ccccc1Br)Nc1ccc2c(c1)OCO2 | -0.39 | -2.8
CCOC(=O)c1cc(CC)sc1NC(=O)c1cccs1 | -1 | -2
CCCN1C(=O)C2(/C(=C(/O)c3ccc(C)cc3)C(=O)C(=O)N2CCOC)c2ccccc21 (configuration not stated) | 3.8 | -1.5
COC(=O)c1c(-c2cccs2)csc1NC(=O)COc1ccccc1Br | 0.02 | -1.4
COc1cccc(NC(=O)Nc2nnc(-c3cccc([N+](=O)[O-])c3)s2)c1 | nt | -1.9
COc1ccccc1C1C(C(=O)OCC2CCCO2)=C(C)NC2=C1C(=O)CC(C)(C)C2 (configuration not stated) | 3.9 | -0.42
COc1cc2c(cc1OC)CN(S(=O)(=O)c1ccccc1)CC2 | nt | -3.3
Cc1ccc2nc(-n3nc(C)c4c3NC(=O)CC4c3ccc(F)c(F)c3)sc2c1 (configuration not stated) | 1 | nt
CN(C)c1ccc(NC2CC(=O)N(c3ccccc3)C2=O)cc1 (configuration not stated) | -5 | 0.23
O=C(CSc1ncnc2ccccc12)NC1CCCC1 | nt | -1.8
CSCC[C@H](NC=O)C(=O)N[C@@H](CC(=O)O)C(=O)NCC(=O)N[C@@H](CS)C(=O)N[C@@H](CCC(=O)O)C(=O)N[C@@H](CC(C)C)C(=O)O | 1.1 | nt
COCCn1c(SCCC(=O)O)nc2c1c(=O)[nH]c(=O)n2C | nt | -0.52
O=c1oc2ccccc2cc1S(=O)(=O)c1ccc(Cl)cc1 | nt | -2
O=C(Nc1nc2ccc(S(=O)(=O)N3CCCC3)cc2s1)c1ccc2c(c1)OCO2 | -0.27 | nt
O=C(CCCCCn1c(=O)[nH]c2ccccc2c1=O)NCCC1=CCCCC1 | 1.7 | nt
N/C(Cc1ccccc1)=N\O | nt | -1.6
Cc1nc(CC(=O)NC2CCCC2)cs1 | 1.1 | 0.95
CC(=O)/C=C1\C(=O)N(C)c2ccccc21 | nt | -2.4
COc1ccc(C)cc1NS(=O)(=O)c1cn(C)cn1 | -0.42 | nt
CN(C)C(=O)c1ccc2c(c1)N(CC(=O)N1CCC(C(N)=O)CC1)C(=O)CS2 | 1.9 | nt

Sorted by heavy-atom count (lowest first): three of the compounds above.
SMILES | TAR Tat displ | CDC25B-CDK2 inh
CC(=O)/C=C1\C(=O)N(C)c2ccccc21 | nt | -2.4
CN(C)C(=O)c1ccc2c(c1)N(CC(=O)N1CCC(C(N)=O)CC1)C(=O)CS2 | 1.9 | nt
O=C(Nc1nc2ccc(S(=O)(=O)N3CCCC3)cc2s1)c1ccc2c(c1)OCO2 | -0.27 | nt

Next part.
SMILES | TAR Tat displ | CDC25B-CDK2 inh
Cc1c2c(n3c(nc4ccccc43)c1C#N)N(Cc1cccnc1)CC2 | -3.8 | -0.81
COc1cccc2c1C(=O)c1c(O)c3c(c(O)c1C2=O)C[C@@](O)(C(=O)CO)C[C@@H]3OC1CC(N)C(O)C(C)O1 (some centres not stated) | 2.4&-5.3 | nt
Cc1ccsc1CNCCNC(=O)c1nonc1N | 0.1 | -1.9
COc1ccc(Cl)cc1NS(=O)(=O)c1ccc(N2CCCC2=O)cc1 | 0.33 | nt
Cn1c(-c2ccc(F)cc2)[n+](C)c2ccccc21 | 1 | -0.58
Nc1ccccc1C(=O)NNC(=O)c1sc2ccccc2c1Cl | nt | 1.1
O=C1N(Cc2ccc(F)cc2)c2ccccc2S(=O)(=O)N1Cc1ccc(F)cc1 | 0.96 | nt
O=C1C2(c3ccccc3)CN3CC1(c1ccccc1)CN(C2)C3c1ccco1 (configuration not stated) | 0.31 | -0.54
Cc1ccc(Nc2c3c(nc4ncnn24)CCC3)cc1F | 1.1 | nt
Cc1cc(=O)n2nc(N3CCCC3C(=O)NC(C)C)sc2n1 (configuration not stated) | 1.6 | -0.02
O=C(NCC1OCCc2ccccc21)C1COc2ccccc2O1 (configuration not stated) | 1.9 | -1.3
CC1CCN(CCCNC(=O)c2noc3c2CCc2sccc2-3)CC1 | 0.47 | nt
O=C1OC([C@@H](O)CO)[C@H](O)[C@@H]1O (some centres not stated) | nt | -1.1
